From PubChem BioAssay
Mtb H37Rv – Mycobacterium tuberculosis H37Rv growth inhibition, cell based, confirmatory dose response (AID 1949) | most inactive calls were filed without a number and no value below 0 was filed | inhibition, % at 10 µg/mL, or IC50 in µg/mL where a hit was titrated | hit rate 1.6% among 100,000;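 active = confirmed in a dose series; inconclusive = about 50% or more but not retested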;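 also: bacteria grown 7 days with compound before Alamar blue readout; 0% = untreated bacteria and 100% = reference antibiotic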
* = called active by the depositor; i = inactive; ? = inconclusive.

SMILES,Mtb H37Rv
N#Cc1cc(Nc2ccc3nc(NC(=O)C4CCCCC4)sc3c2)c([N+](=O)[O-])cc1C#N,?
O=C(CC12CC3CC(CC(C3)C1)C2)NCC(=O)N1CCCC1,i
CCOC(=O)c1sc2nc(N3CCOCC3)c3c(c2c1N)CC(C)(C)N(C)C3,i
Oc1cccc2ccc[n+](CC(O)Cn3c4ccccc4c4ccccc43)c12 (stereo not drawn),9%
COc1ccc(S(=O)(=O)N(CC(=O)Nc2cccc([N+](=O)[O-])c2)c2ccc(Cl)cc2)cc1,i
CC(=O)c1c(N2CCN(Cc3ccccc3)CC2)nc(=S)n(Cc2ccccc2)c1C,i
COc1cc(CNCCc2ccccc2)cc(Cl)c1OCC(=O)NC(C)(C)C,2%
COc1ccc(Nc2nnc(-c3ccc(N4CCOCC4)c([N+](=O)[O-])c3)c3ccccc23)cc1,12%
CCn1cc(C2C3=C(CC(C)(C)CC3=O)N(c3ccc(C)cc3)C3=C2C(=O)CC(C)(C)C3)c(C)n1,i
O=C(Nc1ccccc1Cl)c1ccc2nc(N3C(=O)c4ccccc4C3=O)sc2c1,3%
CCC(C)NC(=O)c1ccccc1NC(=O)c1ccc(Br)cc1 (stereo not drawn),1%
O=C(NC1=NC2CCCCC2N1)c1ccccc1 (stereo not drawn),i
O=C(OCc1ccc2c(c1)OCO2)c1ccc(S(=O)(=O)N2CCCCC2)cc1,i
Cc1ccc(OCCCn2cnc3ccccc3c2=O)c(Br)c1,2%
COc1nnc(-c2ccc(N3CCCCC3)c(NC(=O)c3cccs3)c2)c2ccccc12,28%
Cc1onc(-c2ccccc2Cl)c1C(=O)NCCCCc1ccccc1,i
C=CCn1c(SCC(=O)Nc2ccc(Cl)c(Cl)c2)nnc1-c1ccc(OC)cc1,i
CCOC(=O)C(C)Sc1nc2ccccc2c(=O)n1Cc1ccccc1 (stereo not drawn),i
COc1ccc(OC)c(NC(=O)CN(c2cc(Cl)ccc2C)S(C)(=O)=O)c1,2%
CCCC(=O)N1CCN(c2ccc(NC(=O)c3ccc(OC)cc3)cc2Cl)CC1,i
O=C(Nc1ccc(F)cc1F)c1cccc(COc2ccc3ccccc3c2)c1,i
CC(C)(C)NC(=O)CC(c1ccccc1)c1ccccc1O (stereo not drawn),i
CC12CCC(C(=O)N(CC(O)CN3CCCCC3)C1=O)C2(C)C (stereo not drawn),i
O=C(Nc1cccnc1)c1cc2cc(Br)ccc2oc1=O,?
COc1ccc(NC(=O)c2cccc(Cn3cc(Br)cn3)c2)cn1,i
Cc1cc(Cl)cc(Cl)c1OCCCCOc1ncnc2ccccc12,i
O=C(CC12CC3CC(C1)CC(CC(=O)Nc1ccccc1Cl)(C3)C2)Nc1ccccc1Cl,i
O=C(Nc1c(Cl)cccc1Cl)C(Sc1ccccc1)c1ccccc1 (stereo not drawn),1%
COc1ccc(Cl)cc1NC(=O)N1CCN(c2cccc(C(F)(F)F)c2)CC1,22%
NC(=O)c1ccccc1NC(=S)NC(=O)c1ccco1,4%
O=[N+]([O-])c1cc(S(=O)(=O)C(F)(F)F)ccc1NCC(F)(F)F,i
COC(=O)C1=C(C)N(CCc2ccccc2)C(=O)C1(NC(=O)c1cc(OC)c(OC)c(OC)c1)C(F)(F)F (stereo not drawn),i
O=C(O)c1cc(NC(=S)NC(=O)c2ccc(Cl)cc2Cl)ccc1Cl,i
COc1ccccc1CC(=O)Nc1ccc(F)c(Cl)c1,1%
CCCCNCCCOc1ccc(Cl)cc1Br,32%
O=C(CSc1nnc(-c2ccccc2)n1Cc1ccccc1)NCCOc1ccccc1,i
O=C(c1cc2n(n1)C(C(F)(F)F)CC(c1ccccc1)N2)N1CCCCC1 (stereo not drawn),6%
CS(=O)(=O)N(CC(=O)Nc1ccccc1-c1ccccc1)c1ccc(I)cc1,6%
COc1ccc(CCNC(=S)NC(=O)c2ccccc2)cc1OC,2%
COCCNC(=O)c1ccc(C(=O)NCCOC)s1,i
CC1CCN(C(=O)c2cc(Br)ccc2Cl)CC1,i
Cc1cc(NC(=O)c2ccc(Br)cc2)n(-c2ccccc2)n1,4%
COc1cc(OC)c(C2=NOC(C(=O)Nc3cc(C)nn3-c3ccccc3)C2)cc1Cl (stereo not drawn),4%
CCOC(=O)N1CCN(C(=O)c2cc(C)cc(C)c2)CC1,i
Clc1ccc(OCC#CCN2CCCCCC2)cc1,i
CC(Cc1ccccc1)NC(=O)CN1C(=O)c2ccccc2S1(=O)=O (stereo not drawn),i
COc1cc([N+](=O)[O-])ccc1NC(=O)Nc1ncccc1C,i
O=C(Nc1ccc(N2CCN(C(=O)c3ccc(Cl)cc3)CC2)cc1)c1ccc([N+](=O)[O-])cc1,1%
CCOC(=O)c1c(C)oc2ccc(OCc3cccc([N+](=O)[O-])c3)cc12,i
CCOc1cccc(C2C(C(=O)OC)=CN(C)C=C2C(=O)OC)c1,5%
Nc1nonc1-c1nc2ccccc2n1Cc1ccccc1,i
O=C1C(c2ccccn2)=C(O)c2ccccc21,10%
C=CCc1ccc(OCC(O)CN2CCC(Cc3ccccc3)CC2)c(OC)c1 (stereo not drawn),i
CCCCOc1ccc(C(=O)Nc2ccc(Br)c(C)c2)cc1,12%
CCOc1ccc(-n2c(SCC(=O)Nc3ccccc3C(F)(F)F)nnc2-c2ccccc2)cc1,i
CCOc1cc(C(=O)Nc2cccc([N+](=O)[O-])c2)ccc1OCc1ccccc1,i
O=C(Nc1ccc(Br)cc1)c1ccccc1[N+](=O)[O-],i
CCC(Sc1nnc(COc2ccccc2C)n1C)C(=O)Nc1ccc(C(C)=O)cc1 (stereo not drawn),4%
CCOC(=O)c1cc(-c2ccccc2)sc1NC(=O)c1ccccc1,i
CCOc1ccccc1CNCc1ccc(F)cc1,i

Shown field by field: two of the compounds above
SMILES: O=C1C(c2ccccn2)=C(O)c2ccccc21
  Mtb H37Rv = 10%
SMILES: C=CCc1ccc(OCC(O)CN2CCC(Cc3ccccc3)CC2)c(OC)c1 (stereo not drawn)
  Mtb H37Rv = i

Following part:
SMILES,Mtb H37Rv
O=S(=O)(Nc1cc(Cl)cc(Cl)c1)c1cccs1,i
O=C(c1ccccc1)c1ccc(OCC(O)CN2CCOCC2)cc1 (stereo not drawn),i
Cc1ccc(S(=O)(=O)N(CC(=O)Nc2ccccc2C(=O)NC(C)C)c2ccc(Cl)cc2)cc1,i
O=C1c2cccc3c(N4CCCCCC4)ccc(c23)C(=O)N1c1ccccc1,i
COc1cc(-c2nc3ccccc3s2)cc(Br)c1OCC(N)=O,2%
CCOc1ccc(OCCOc2ccc(Br)cc2Cl)cc1,1%
COc1ccc(CCCc2nnc(SCC(=O)Nc3nc(-c4ccc(C)cc4)cs3)n2C)cc1,3%
CCCNC(=O)C1CCN(S(=O)(=O)c2ccc(Br)cc2)CC1,i
O=C(O)CCCCC1CCNC(=O)N1 (stereo not drawn),1%
COc1ccc(C(=O)COc2ccc(NC(=O)c3ccccc3)cc2)cc1,i
COc1ccc(CCn2c3c(c(=O)[nH]c2=O)C(NC(=O)c2ccccc2F)(C(F)(F)F)C(=O)N3)cc1OC (stereo not drawn),i
COCc1nc2ccccc2n1CCOc1ccc(Cl)cc1,36%

Some of the entries so far, as labelled records.
COc1ccc(C(=O)COc2ccc(NC(=O)c3ccccc3)cc2)cc1
  Mtb H37Rv = i

COc1ccc(CCn2c3c(c(=O)[nH]c2=O)C(NC(=O)c2ccccc2F)(C(F)(F)F)C(=O)N3)cc1OC (stereo not drawn)
  Mtb H37Rv = i

Following part
SMILES,Mtb H37Rv
O=C(Nc1ccc2c(c1)OCO2)C(=O)NC1CCCCCCCCCCC1,i
C=CCNC(=S)N1CCN(c2ccc([N+](=O)[O-])cc2)CC1,i
OC(c1ccccc1)c1nc2ccccc2n1Cc1cccc2ccccc12 (stereo not drawn),2%
Cc1ccccc1Nc1ncnc(N)c1[N+](=O)[O-],i
O=C(Nc1ccc(Oc2ccccc2)cc1)C1CC2CCC1C2 (stereo not drawn),i
O=C(O)c1cc(Br)ccc1NC(=O)C1CCCO1 (stereo not drawn),0%
O=S(=O)(Cc1ccccc1)c1ccc(Oc2ccc(S(=O)(=O)Cc3ccccc3)cc2)cc1,i
COC(=O)c1cc(-c2ccc(C)cc2)nc2ccc(C)cc12,i
O=C(CSc1ncccc1C(=O)O)c1ccccc1,5%
Cc1ccc(NC(=O)C(C)Oc2cccc(Br)c2)c(C)c1 (stereo not drawn),28%
Clc1ccccc1OCc1nnc(-c2ccccc2)o1,5%
CCc1nc(C)cn1S(=O)(=O)c1cc(C)c(Br)cc1C,5%
O=c1c2ccccc2c2ccccc2c(=O)n1CCc1ccccc1,i
Cc1ccc(C(=O)CC(C(=O)O)n2ccc(C)n2)cc1 (stereo not drawn),i
O=C(c1ccccc1)c1ccc(OCC(O)CN2CCN(c3ccccn3)CC2)cc1 (stereo not drawn),i
COc1cc(NC(=S)N2CCC(C(N)=O)CC2)c(OC)cc1Cl,i
CCc1cc(Br)ccc1NC(=O)C1CCCO1 (stereo not drawn),i
CCC(=O)N/C(=N/c1nc(C)cc(C)n1)Nc1ccc(Cl)c(Cl)c1,8%
CCCCNC(=O)c1ccccc1N(C)S(C)(=O)=O,i
Clc1ccc(SCCCSc2ncccn2)cc1,i
CCCN1CCN(C(=S)Nc2cc(Cl)ccc2OC)CC1,i
O=C(NCc1cccnc1)c1cc(I)ccc1NC(=O)c1cccc2ccccc12,i
O=c1c2c(nc3c(-c4cccc5ccccc45)c(Cc4ccccc4)[nH]n13)CCCC2,7%
O=C(CC1(O)C(=O)N(CCOc2ccccc2)c2ccccc21)c1ccc2c(c1)OCCO2 (stereo not drawn),i

4 entries picked at random from those above:
SMILES,Mtb H37Rv
O=C(NCc1cccnc1)c1cc(I)ccc1NC(=O)c1cccc2ccccc12,i
O=c1c2ccccc2c2ccccc2c(=O)n1CCc1ccccc1,i
CCC(=O)N/C(=N/c1nc(C)cc(C)n1)Nc1ccc(Cl)c(Cl)c1,8%
Clc1ccc(SCCCSc2ncccn2)cc1,i

Later entries:
SMILES,Mtb H37Rv
CCOC(=O)Cc1csc(NC(=S)NC(=O)c2cc(OC)cc(OC)c2)n1,i
O=C(CC12CC3CC(CC(C3)C1)C2)Nc1cccc(Cl)c1,3.3µg/mL*
Cc1ccc(C(=O)Nc2nnc(C(F)(F)F)s2)cc1C,5%
Cc1nc2ccccc2n2cc3c(=O)n(C)c(=O)n(C)c3c12,i
CCOC(=O)Cc1cc(=O)[nH]c(/N=C(\NC(=O)c2ccccc2)Nc2ccc3ccccc3c2)n1,i
O=C(Nc1ccc(Cl)cc1Cl)N1CCN(c2ccc(Cl)cc2)CC1,i
CCOC(=O)c1ccc(NC(=O)N(C)Cc2cn(CC)nc2C)cc1,i
CCc1cc2c3c(c(=O)oc2cc1OCc1cc(C(=O)OC)oc1C)CCCC3,i
Cc1ccc(N(CC(=O)Nc2ccccc2-c2ccccc2)S(C)(=O)=O)cc1C,i
CC(=O)N1CCN(CCN2C(=O)C3C4c5ccccc5C(c5ccccc54)C3C2=O)CC1 (stereo not drawn),i
COc1ccc(NC(=S)N2CC3(C)CN(C(=S)Nc4ccc(OC)cc4)CC(C)(C2)C3)cc1,i
COc1ccc(-c2nnn(CC(=O)NC3CCCC3)n2)cc1,3%
COC(=O)c1sc(NC(=O)C2c3ccccc3Oc3ccccc32)c(C(=O)OC)c1C,i
O=C1CCCN1CCC1CCN(C(=O)Nc2ccccc2)CC1,i
CSc1ccc(S(=O)(=O)Nc2ccc(C)c(C)c2)cc1,3%
COC(=O)c1ccc(NC(=O)CSc2nnc(-c3ccccc3)n2C2CCCCC2)cc1,i
CCOC(=O)Nc1ccc(Cl)cn1,i
Cc1ccccc1NS(=O)(=O)c1ccc(NS(C)(=O)=O)cc1,i
COc1ccc(Cc2nc3c4c(-c5ccc(OC)cc5)c(-c5ccc(OC)cc5)oc4ncn3n2)cc1,2%
O=C(c1ccc(Cl)cc1)N1CCN(c2ccc([N+](=O)[O-])c(N3CCN(c4ccccc4)CC3)c2)CC1,i
COc1ccc(S(=O)(=O)Nc2ccc(S(=O)(=O)Nc3ccc(C)cc3)cc2)c(Cl)c1Cl,i
O=C(CSc1nnc(-c2ccc(Cl)cc2)n1Cc1ccccc1)N1CCCC1,i
COc1cc(S(=O)(=O)N2CCCCC2)ccc1NC(=O)c1cccc(Br)c1,i
CCOc1cc(OCC)cc(C(=O)Nc2ccc([N+](=O)[O-])cc2OC)c1,i
O=C(NC(=S)NC1=NCCS1)C(c1ccccc1)c1ccccc1,i
CS(=O)(=O)N1CCN(C(=O)c2cc(-c3ccc4c(c3)OCO4)nc3ccccc23)CC1,3%
O=C(N1CCCCC1)N1CCN(S(=O)(=O)c2ccc(Cl)cc2)CC1,i
COc1ccccc1N1CCN(C(=S)Nc2ccccc2OC(F)F)CC1,i
Cc1ccc(S(=O)(=O)Oc2ccc3c(c2)oc(=O)c2ccccc23)cc1,2%
CCN1CCN(c2ccc(NC(=O)c3ccc(Cl)cc3)cc2)CC1,i
O=[N+]([O-])c1cccc2c(NS(=O)(=O)c3cccs3)cccc12,i
CCOc1cc(C2NC(=S)NC(C)=C2C(=O)Nc2ccccc2)cc(Br)c1O (stereo not drawn),i
O=C(CN(c1ccccc1)S(=O)(=O)c1ccc(Cl)cc1)Nc1cccnc1,i

This is a subset; rates above refer to the full screens.
